# Screens from PubChem BioAssay.
# Prx2 Sm inh: blocks S. mansoni peroxiredoxin 2 enzymatic activity. S. mansoni Prx2 activity coupled to TGR/GSH (TGR is thioredoxin glutathione reductase), NADPH fluorescence loss, qHTS; some inactives read as strong as hits. Potency, µM. actives 0.07% (n = 65,000). AID 448; active means full or partial inhibition curve with a strong effect at the top dose; inconclusive means weaker partial or single-point curve; inactive means no accepted curve; further: series up to 57 µM; many of its hits are not listed in these tables
#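 Enzyme mix: 100 uM NADPH, 25 nM TGR, 700 uM GSH, 50 nM Prx2 in 100 mM phosphate pH 7.4, 10 mM EDTA, 0.01% Tween-20. 15 min RT with compound; NADPH/GSH added, H2O2 starts reaction; NADPH fluorescence read 8 min.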
# LT uptake inh: blocks cellular internalization of anthrax lethal toxin; actives 0.67% (n = 70,000); Potency, µM (titrated, usually from 40 µM), without a hit: at the highest dose activity change, negative = inhibition, usual class: inhibitors; AID 912; Cells, anthrax lethal toxin internalization, FRET ratio (460/530); active = well fitted falling ratio curve with the 530 nm signal flat; inconclusive = other ratio curves, or a change in one channel alone; inactive = flat curves in the ratio and both channels; the % refers to the ratio; further: on the % scale 0 is the no-effect control and ±100 the full control effect; nearly all actives have a fitted effect of over 50% in size; tested in ME-180 cells; beta-lactamase reporter
# Active calls of the source: *; ? = inconclusive; . = no result given; [ ] = dose if it differs, or a comment. Potency means the concentration at half of the fitted maximal effect. An excerpt; the hit share may differ from the screen's.
# Screens in order – LT uptake inh | Prx2 Sm inh
O=C(NC1CCCC1)C1CCCN(S(=O)(=O)c2cccc3cccnc23)C1 (centres undefined)
 : -14.2% | >57
COC(=O)[C@@]1(Cc2ccccc2)[C@H]2c3cc(C(=O)N(C)C)n(Cc4ccc(S(C)(=O)=O)cc4)c3C[C@H]2CN1C(=O)c1ccccc1
 : 0.0% | >57
O=C(OCC(=O)N1CCCCC1)c1cc2ccccc2cc1O
 : -7.2% | >57
CCCCCCOC(=O)C1=C(C)NC(=O)NC1c1ccc(O)cc1 (centres undefined)
 : -2.4% | >57
Cc1ccc(Cn2c(=O)c3c(nc4n3CCN4Cc3ccco3)n(C)c2=O)cc1
 : . | >57
CCCn1c(-c2ccc(F)cc2)nc2c(NCCN3CCCCC3)nc(C)nc21
 : -3.8% | .
COc1ccc(-n2c(Cc3cc(=O)[nH]c(=O)[nH]3)nnc2SCC(=O)NC2CCCC2)cc1
 : 3.9% | >57
O/N=C(\COc1ccccc1O)c1ccccc1
 : 4.0% | >57
O=C(Nc1ccccc1C(=O)NCc1ccc(Cl)cc1)c1ccco1
 : -11.3% | >57
Cn1c(=O)[nH]c(=O)c2c1nc(Br)n2CCCCSc1nc2ccccc2o1
 : ? | >57

# Full records from above. Order of values: LT uptake inh, Prx2 Sm inh
# Listed for O=C(NC1CCCC1)C1CCCN(S(=O)(=O)c2cccc3cccnc23)C1 (centres undefined) → -14.2%, >57
# Listed for Cc1ccc(Cn2c(=O)c3c(nc4n3CCN4Cc3ccco3)n(C)c2=O)cc1 → ., >57

# Later entries:
# Screens in order – LT uptake inh | Prx2 Sm inh
O=C1CCC(C(=O)Nc2cccc3ccccc23)N1 (centres undefined)
 : 16.7% | >57
O=C(O)CC/C=C\C[C@@H]1CO[C@H](c2ccccc2Cl)O[C@@H]1c1ccccc1O
 : -7.1% | >57
CCC(C)OC(=O)C1=C(C)NC(=O)CC1c1ccccc1OC (centres undefined)
 : -15.1% | >57
CC(C)C(NC(=O)c1ccco1)C(=O)NCC(c1ccco1)N1CCCCC1 (centres undefined)
 : 0.0% | >57
CCOC(=O)CC(=O)Nc1nc2ccccc2s1
 : -2.6% | >57
CCN(CC)c1ccc(NC(=O)CCCCCN2C(=O)c3ccccc3C2=O)cc1
 : ? | >57
Cn1c(SCC(=O)N2CCCc3ccccc32)nnc1-c1c[nH]c2ccccc12
 : ? | >57
CCSCC1COC(c2cccn2Cc2ccc(C)cc2)=N1 (centres undefined)
 : ? | >57
O=C(Cc1cccs1)Nc1ccc(S(=O)(=O)N2CCCCC2)cc1
 : -3.4% | >57
COc1ccc(C2CC(c3ccc(Cl)cc3Cl)Nc3nc(N)nn32)cc1 (centres undefined)
 : -15.0% | >57
COc1ccc(CNc2nc(-c3ccc(C(=O)N(C)C)cc3)nc3ccccc23)c(OC)c1
 : -15.2% | >57
C/C(CCN1CCc2nc(-c3ccccc3)c(-c3ccccc3)cc2C1)=N\OC[C@@H](O)[C@@H]1O[C@@H]2OC(C)(C)O[C@@H]2[C@H]1O
 : -0.1%[8 µM] | .
COC(=O)c1cccnc1-n1c(=O)c2cccnc2n(Cc2ccc(Cl)cc2)c1=O
 : ? | >57
O=C(c1ccc(Cl)cc1)c1ccc(OCC(O)CN2CCOCC2)cc1 (centres undefined)
 : -14.0% | >57
Clc1ccc(-c2noc(CN3CCCC3)n2)cc1
 : 11.8% | >57
O=C1C(=C(O)c2ccccc2)C(=O)c2ccccc21
 : 12.3% | >57
N#Cc1cccc(NC(=O)N2CCC(c3nc4c(nnn4Cc4cccc(Cl)c4)c(=O)[nH]3)CC2)c1
 : ? | >57
CC(C)=CCCC(C)N(C=O)C(C)CCC=C(C)C (centres undefined)
 : 21.2% | .
CN1C(=O)CCS(=O)(=O)[C@@H]1c1ccc(Cl)cc1
 : -1.9%[3.58 µM] | >57
Cc1ccc(Cn2c(SCC(C)C)nc3c2c(=O)[nH]c(=O)n3C)cc1
 : -8.8% | >57
c1ccc(CN2CCN(CCCNc3ccc4nnc(-c5ccccc5)n4n3)CC2)cc1
 : ? | >57
Cc1csc2ncc(C(=O)NCc3ccccn3)c(=O)n12
 : -5.5% | >57
O=C(CCc1nc2ccccc2[nH]1)NC1CCCCC1
 : -15.3% | >57
COc1ccccc1CN1CC2(CCN(C(=O)c3cc(C(F)(F)F)cc(C(F)(F)F)c3)CC2)C1
 : ? | >57
O=C1c2ccccc2-c2c1cccc2C(=O)N1CCN(C(=O)c2ccco2)CC1
 : -0.2% | .
Cc1cc(Cl)c(OCCCn2cncn2)c(Br)c1
 : -1.6% | >57
O=S(=O)(Nc1ccc(Cl)c(C(F)(F)F)c1)c1cnc[nH]1
 : -1.9% | >57
O=C(Nc1cccc2ncccc12)c1cccnc1
 : 10.4% | >57
CC(=O)NC(C1C(=O)CC(C)(C)CC1=O)(C(F)(F)F)C(F)(F)F
 : 14.3% | >57
CCCn1nc(NC(=O)c2cccs2)c2cc3cc(OC)ccc3nc21
 : ? | >57
COc1cccc(NC(=O)C2C3C=CC4(O3)C2C(=O)N(C(C)C)C4C(=O)NC2CCCCC2C)c1 (centres undefined)
 : 14.6% | >57
COc1ccc2c(c1)[C@]1(C)CCC[C@](C)(CO)[C@@H]1CC2
 : -11.6% | >57
Cc1nc2nc(SCC(=O)NCc3ccco3)nn2c(C)c1Cc1ccccc1
 : 5.8% | >57
Cn1nnnc1SCSc1nnnn1C
 : -11.0% | >57
COCCOC(=O)c1c(C)oc2ccc(OC(=O)N(C)C)cc12
 : ? | >57
O=C1CC(c2ccncc2)c2cc3c(cc2N1)OCO3 (centres undefined)
 : 8.1% | >57
CSCC[C@@H](Nc1nc(-c2ccccc2)nc2c1oc1ccccc12)C(=O)O
 : . | >57
OC(COc1ccc(Br)cc1)CN1CCOCC1 (centres undefined)
 : 0.0% | >57
CCOC(=O)CSc1nnc(CNc2ccccc2Cl)n1-c1ccccc1
 : 23.2% | >57
Cc1c(Cl)cccc1Nc1ccccc1C(=O)O
 : 2.5%[3.58 µM] | >57
COc1cccc(CNC(=O)c2ccc3nc[nH]c3c2)c1
 : ? | >57
c1cncc(CNc2nc(N3CCOCC3)nc(N3CCOCC3)n2)c1
 : -1.0% | .
CCOc1ccccc1N1CCN(C(=O)c2ccccc2)CC1
 : 9.9% | >57
C=CCOC(C)=O
 : 0.8% | .
CCn1c(SCC(=O)Nc2nc(C)cs2)nnc1C(NC(=O)c1ccccc1Cl)C(C)C (centres undefined)
 : -5.8% | >57
CC(=O)NC1(C(F)(F)F)C(=O)Nc2c1c(=O)[nH]c(=O)n2Cc1ccco1 (centres undefined)
 : 9.4% | >57
O=C(CSc1nnc(-c2cnccn2)n1Cc1ccco1)c1ccc2ccccc2c1
 : -12.3% | >57
Cc1cccc(-n2nnnc2SCc2csc(-c3ccccc3)n2)c1
 : ? | >57
O=C(Cn1nnc(-c2ccccc2-n2cnnn2)n1)NCc1ccccc1
 : 5.8% | >57
COCCNC(=O)c1snc2ccc(Cl)cc12
 : -11.5% | >57

# (next part)
# Screens in order – LT uptake inh | Prx2 Sm inh
Cc1cc2oc(=O)cc(CN3CCC(C)CC3)c2cc1Cl
 : -7.8% | >57
Cc1cc(Cl)ccc1OCCCC(=O)N1CCN(C(=O)c2ccco2)CC1
 : 16.6% | >57
Cc1ccc(CCNC(=O)C2CCN(S(=O)(=O)N3CCC4(CC3)OCCO4)CC2)cc1
 : 10.5% | >57
Cc1ccc(NS(=O)(=O)c2cc(C(=O)N3CCN(C)CC3)ccc2C)cc1
 : ? | >57
CCOc1c(N2CCCCC2)c(=O)c1=O
 : -12.8% | >57
COCCNc1nc(-c2ccc(C(=O)N(C)C)cc2)nc2ccccc12
 : 9.6% | >57
CCOC(=O)CN1C(=O)CSc2ccccc21
 : -1.1% | >57
COc1ccc(-c2ccccc2C2NC(C(=O)O)CCC2C)cc1 (centres undefined)
 : -9.7%[8 µM] | .
S=c1[nH]nc(-c2cccc(Br)c2)o1
 : 3.6% | >57
O=C(CCN1C(=O)C2C3C=CC(C3)C2C1=O)NCCN1CCCc2ccccc21 (centres undefined)
 : 3.3% | >57
Nc1ncnc(Nc2ccccc2C(F)(F)F)n1
 : -19.1% | >57
CC12CC(c3ccccc3O1)C(C(=O)NCc1ccccc1)C(=O)N2 (centres undefined)
 : 0.7% | >57
Cc1ccc2c(CN3C(=O)NC(C)(c4ccc5c(c4)OCO5)C3=O)cc(=O)oc2c1 (centres undefined)
 : -14.0% | >57
CC(=O)N1CN2CN(C(C)=O)CC(C(=O)c3ccccc3)(C2)C1
 : 12.7% | .
COc1ccc(-c2noc(CCC(=O)NCC3CCN(Cc4cccc(C)c4)CC3)n2)cc1
 : -11.6% | >57
Cc1cc([N+](=O)[O-])c(C)c(Br)c1C
 : -13.9%[8 µM] | >57
COCCCNC(=O)Cn1cc(C(=O)C2CC2)c2ccccc21
 : 1.3% | >57
Cc1ccc(/C=c2\sc3nc(-c4cccs4)nn3c2=O)o1
 : -14.6% | >57
O=C(c1cnn2c(C(F)(F)F)cc(-c3ccc(Br)cc3)nc12)N1CCOCC1
 : -15.4% | .
Cc1cc(=O)n2[nH]c(C)c(-c3ccccc3)c2n1
 : -11.5% | >57
Cn1c(=O)c(-c2ccccc2)nc2cnc(N3CCNCC3)nc21
 : ? | >57
O=Cc1ccc(OC2C=CC(c3ccccc3)OC2CO)cc1 (centres undefined)
 : -9.7%[8 µM] | .
COC(=O)c1ccc(C(/C=C/[C@@H](C)C(=O)NCc2ccc(OC)c(O)c2)NC(=O)OCc2ccccc2)cc1 (some centres undefined)
 : 4.7% | .
CC(=O)c1ccc(OCC(O)CN(C)Cc2cccs2)cc1 (centres undefined)
 : -3.1% | >57
CCCCCCn1c(CN2CCN(C)CC2)nc2c1c(=O)n(C)c(=O)n2C
 : 9.8% | >57
Cn1c(=O)c2c(ncn2CC(=O)Nc2cc(Cl)c(Cl)cc2Cl)n(C)c1=O
 : ? | >57
O=C(C1CCN(S(=O)(=O)c2cccc3cccnc23)CC1)N1CCn2c1nc1ccccc12
 : -29.0% | >57
CCc1nc(NC(C)C)c2oc3ccccc3c2n1
 : 4.1% | >57
CC1(C)CC(=O)C(C=Nc2ccccc2C(=O)O)=C(O)C1
 : 6.2% | >57
CC1=C(C)C(=O)N(c2ccc(C(=O)O)cc2)C1=O
 : 2.2% | >57
Cc1cc2oc(=O)cc(C)c2cc1NC(=O)CCC(=O)O
 : -10.4% | >57
Cc1ccc(S(=O)(=O)N2CCCC(C(=O)NCC3COCCO3)C2)cc1 (centres undefined)
 : 8.4% | >57
CCCOc1ccc(CC(=O)NCc2ccco2)cc1OC
 : 10.9% | >57
COc1cc2cc3c4c(cc(OC)c(OC)c4c2cc1OC)CCN3C
 : ? | >57
COc1ccc(CN(C)CC(=O)c2c(N)n(Cc3ccccc3)c(=O)n(C)c2=O)c(OC)c1
 : 9.5% | >57
O=C(NCc1ccco1)C1Cc2ccccc2CN1S(=O)(=O)c1ccccc1F (centres undefined)
 : 4.2% | >57
C=CC[C@H](N)C(=O)O
 : -9.4% | >57
O=C1C/C(=C/NCc2ccccc2)C(=O)N1
 : -5.2% | >57
CC(=O)OC[C@H]1O[C@@H](ON=C(C)C)[C@H](OC(C)=O)[C@@H](OC(C)=O)[C@H]1OC(C)=O
 : 4.9%[1.6 µM] | .
C=CCn1c(SCc2nc3ccccc3[nH]2)nnc1-c1ccccn1
 : 9.4% | >57

# The list goes on, starting with the last two of the part before.
# Screens in order – LT uptake inh | Prx2 Sm inh
CC(=O)OC[C@H]1O[C@@H](ON=C(C)C)[C@H](OC(C)=O)[C@@H](OC(C)=O)[C@H]1OC(C)=O
 : 4.9%[1.6 µM] | .
C=CCn1c(SCc2nc3ccccc3[nH]2)nnc1-c1ccccn1
 : 9.4% | >57
Cc1cccc2sc(NC(=O)CN(C)S(=O)(=O)c3ccc(Br)s3)nc12
 : ? | >57
CCOc1ccc(-c2nnc(NC(=O)CCCOc3cccc(C)c3)o2)cc1
 : 1.4% | >57
COc1ccc(N2CCN(S(=O)(=O)c3cccc4cccnc34)CC2)cc1
 : -2.8% | >57
O=c1c(-c2ccccc2)nc2cnc(N3CCOCC3)nc2n1CCc1ccccc1
 : ? | >57
Cc1nc(CSc2nnc(C)s2)cs1
 : 4.0% | >57
Cn1cnc(S(=O)(=O)NCc2cccs2)c1
 : 3.1% | >57
CC(C)C1C(C#N)=C(N)Oc2n[nH]c(-c3cccs3)c21 (centres undefined)
 : ? | >57
CC(=O)N1c2ccccc2C(=O)C1N1CCCCC1 (centres undefined)
 : ? | >57
CCn1c(O)c(C=NCCc2c[nH]c3ccccc23)c(=O)[nH]c1=O
 : 3.0% | >57
CCCCC(c1nnnn1CC1CCCO1)N1CCN(c2nc3ccccc3s2)CC1 (centres undefined)
 : 8.8% | >57
COc1ccccc1Oc1c(C)oc2cc(OC(=O)c3ccco3)ccc2c1=O
 : -7.1% | >57
CNCCCc1[nH]nc(N)c1C#N
 : -17.8% | >57
O=C(O)C1CCCCC1C(=O)N1CC=C(c2ccccc2)CC1 (centres undefined)
 : ? | >57
CCOC(=O)C1=C(C)NC(C)=C(C(=O)OCC)C1C(=O)OCC(=O)N1CCCCC1CC (centres undefined)
 : 9.9% | >57
CN1CCN(CCCn2cnc3c(=O)oc4ccccc4c32)CC1
 : -5.5% | >57
COC(=O)CN1C(=O)C(O)(CC(=O)c2ccc(Br)cc2)c2ccccc21 (centres undefined)
 : -11.3% | >57
COc1cccc(N2C(=O)C3C(C2=O)C2C=CC3C23CC3)c1 (centres undefined)
 : -5.8% | >57
